NPYLR7 agonist: activates Aedes aegypti NPYLR7 receptor; HEK293T NPYLR7/Galpha15, GCaMP6s calcium fluorescence; actives 0.15% (n = 270,000); activation, % at 10 µM; AID 1259423; in the data active means activation above about 40%;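 further: 0% = vehicle and 100% = reference agonist at the receptor; some compounds past the cut are filed as inactive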
NPYLR7 agonist max-min: second read-out of NPYLR7 agonist, no call of its own (marks repeat the call); activation, %; measured here: Max-Min RFU normalised activation; some inactives read as strong as hits;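 span of the calcium signal over five minutes; 0% = vehicle and 100% = native peptide agonist; compound fluorescence can raise it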
An asterisk follows results filed as active; & = joins results of further samples.

| mol | NPYLR7 agonist | NPYLR7 agonist max-min |
| --- | --- | --- |
| CCCC(Sc1nnc(-c2ccncc2)n1-c1cccc(C(F)(F)F)c1)C(=O)OCC (stereo unspecified) | 4 | 7 |
| CC(C)=CC(O)(C=C(C)C)c1ccc(CN(Cc2ccccc2F)C(C)C)o1 | 3 | 2 |
| Cc1nccn1CCn1nc(C2CCNCC2)n(Cc2ccccc2)c1=O | -5 | -5 |
| O=S(=O)(Nc1cccc2cccnc12)c1ccccc1F | -1 | 36 |
| CCOC(=O)N1CCC(NC(=O)C2CC23CCN(Cc2ccc(OC)c(OC)c2Cl)CC3)CC1 (stereo unspecified) | 8 | 11 |
| Cc1ccc(OCC(=O)Oc2coc(CSc3nc(C)cc(C)n3)cc2=O)cc1 | -12 | -9 |
| COc1ccc(CN2CCN(Cc3cc4ccccc4[nH]3)CC2CCO)c(F)c1 (stereo unspecified) | 18 | 3 |
| CC(C)CCN1C(=O)N(Cc2cccnc2)C(=O)C12CCN(Cc1cccc(C(F)(F)F)c1)CC2 | 15 | 7 |
| Cc1nc(SCc2cc(Cl)cc3c2OCOC3)c2ccccc2n1 | 0 | 14 |
| C=CCNCc1csc(COc2ccc(C)cc2)n1 | 4 | 8 |
| COc1cc(=O)n(-c2ccc(F)cc2)nc1C(=O)N1CCCC1 | 8 | 3 |
| Cc1ccc(NC(=O)[C@H]2C[C@H](C(=O)O)CN(Cc3cccc(F)c3C)C2)cn1 | 1 | -1 |
| Cc1cc(C)c2nc(NC(=O)Cc3ccccc3)sc2c1 | 1 | 0 |
| O=C(CCN1C(=O)COc2ccccc21)Nc1nc(-c2ccccc2)cs1 | 6 | 3 |
| Cc1nc(CC(=O)NCc2cccnc2N2CCOCC2)cs1 | 3 | -1 |
| Cc1cc(C)nc(NS(=O)(=O)c2ccc(NC(=O)CSc3nc4ccccc4s3)cc2)n1 | -4 | -13 |
| CC(C)Oc1ccc(C#N)cc1NCc1nnsc1Cl | 4 | 0 |
| CCN1CCN(C2=C(c3c(C)[nH]n(-c4cccc(Cl)c4)c3=O)C(=O)N(c3ccc4c(c3)OCO4)C2=O)CC1 | 17 | 15 |
| CC(C)(C)c1ccc(OCc2n[nH]c(=S)o2)cc1 | -1 | 0 |
| O=c1cc(CO)oc(C(Nc2ccccn2)c2ccccc2F)c1O (stereo unspecified) | 7 | 6 |
| COc1ccc(/C=C/C(=O)N(C)c2ccccc2C(=O)O)cc1 | 1 | -1 |
| Cc1cc(NC(C)c2cnn(C)c2)nc2cc(Cl)ccc12 (stereo unspecified) | 3 | -7 |
| CCc1[nH]n(-c2cccc(Cl)c2)c(=O)c1C1=C([n+]2ccccc2)C(=O)N(c2ccc3c(c2)OCO3)C1=O | 9 | 6 |
| Cc1ccc(CCNC(=O)C2CC=CCC2C(=O)N2CCC(C#N)(c3ccccc3)CC2)cc1 (stereo unspecified) | -9 | -17 |
| COCCNC(=O)C1(C)CCCN(Cc2cccc(F)c2)C1 (stereo unspecified) | 5 | 2 |

Of the compounds above, these contain an aryl methoxy group:
| mol | NPYLR7 agonist | NPYLR7 agonist max-min |
| --- | --- | --- |
| CCOC(=O)N1CCC(NC(=O)C2CC23CCN(Cc2ccc(OC)c(OC)c2Cl)CC3)CC1 (stereo unspecified) | 8 | 11 |
| COc1ccc(CN2CCN(Cc3cc4ccccc4[nH]3)CC2CCO)c(F)c1 (stereo unspecified) | 18 | 3 |
| COc1cc(=O)n(-c2ccc(F)cc2)nc1C(=O)N1CCCC1 | 8 | 3 |
| COc1ccc(/C=C/C(=O)N(C)c2ccccc2C(=O)O)cc1 | 1 | -1 |

Back to the main list, starting 2 compounds before the break.
| mol | NPYLR7 agonist | NPYLR7 agonist max-min |
| --- | --- | --- |
| Cc1ccc(CCNC(=O)C2CC=CCC2C(=O)N2CCC(C#N)(c3ccccc3)CC2)cc1 (stereo unspecified) | -9 | -17 |
| COCCNC(=O)C1(C)CCCN(Cc2cccc(F)c2)C1 (stereo unspecified) | 5 | 2 |
| COCCC(=O)N1CCC(C(=O)Nc2cccc(-c3cccc(Cl)c3)c2)CC1 | -2 | -6 |
| CC1=NC2=C(C(=O)CC(c3ccccc3)C2)C(c2ccccc2Br)C1C#N (stereo unspecified) | 2 | 1 |
| CC(C)CCC(=O)N1CCC(NC(=O)OC(C)(C)C)C(C)C1 (stereo unspecified) | -4 | -6 |
| Cc1ccc(NC(C)C(=O)Nc2ccc3c(c2)OCCO3)cc1 (stereo unspecified) | 0 | -2 |
| Cc1ccc2[nH]c(C(=O)N3CCC(C)CC3)cc(=O)c2c1 | 1 | 1 |
| OC1(c2ccc(F)cc2)C[N+]2=C(SCCC2)N1CCc1ccccc1 (stereo unspecified) | -6 | -6 |
| CNc1ccc(-c2cccc(C(=O)N3CCOCC3)c2)cn1 | 4 | 1 |
| COc1ccc(N2C(=O)CSC2c2ccccc2NC(=O)COCc2ccccc2)c(OC)c1 (stereo unspecified) | 8 | 17 |
| COc1ccsc1C(=O)Nc1ccc(N2CCN(C)CC2)cn1 | -5 | -4 |
| COc1ccccc1N1CCN(c2cc(Oc3ccc(F)cc3Cl)ncn2)CC1 | 12 | 11 |
| Cc1ccc(-n2c(SC(C)C)nc3c(c2=O)SCC3)cc1 | 1 | -1 |
| Cc1ccc(S(=O)(=O)CCC(=O)N(CCN(C)C)c2nc3cc(C)cc(C)c3s2)cc1 | -3 | -6 |
| COc1cccc(OC)c1OCCN1CCC(C(=O)NC(C)c2ccccc2)CC1 (stereo unspecified) | 12 | -2 |
| Cc1ccc(C2CC(=O)c3cn4nc(C)nc4nc3C2)cc1 (stereo unspecified) | 3 | 5 |
| O=C(CCCOc1ccc(F)cc1)Nc1nncs1 | -2 | -2 |
| Cc1cc(C)c(C)c(SC(C(=O)NC(N)=O)C(C)C)c1C (stereo unspecified) | 0 | 3 |
| CCOCC(=O)N1CCO[C@@H]2CCCC[C@H]21 | -6 | -6 |
| O=C1CCC(C(=O)OCc2csc(-c3cccs3)n2)O1 (stereo unspecified) | 2 | 2 |
| O=C(Cc1ccccc1)NCC1CCN(c2nc(Cc3ccc(Cl)cc3)ns2)CC1 | 11 | 14 |
| Cc1cccc(OC2CCCCC2N)c1 (stereo unspecified) | 4 | 1 |
| Cc1nn(Cc2cc(=O)n3c(C)csc3n2)c(C)c1[N+](=O)[O-] | 6 | 0 |
| O=C(CCc1ccccc1)Nc1nnc(C23CC4CC(CC(C4)C2)C3)s1 | 5 | 4 |
| Cc1cn2c3c(=O)n(CC(=O)C(C)(C)C)c(=O)n(C)c3nc2n1-c1ccccc1F | 4 | 3 |
| c1ccc(N2CCN(c3nc4ccccc4c4nc(-c5ccncc5)nn34)CC2)nc1 | 4 | 3 |
| CCc1nn(C)c(Cl)c1CN1CCCC2(CC1)CN(C)C(=O)O2 (stereo unspecified) | 18 | 17 |
| COc1ccccc1-c1ccc2c(c1)C(C)(Cc1c(C)noc1C)C(=O)N2 (stereo unspecified) | -3 | 4 |
| Cc1cc(CNC(=O)c2sc(-c3cccc(Cl)c3)nc2C)no1 | 1 | 7 |
| Cc1cccc2c1NC1(CCN(C(=O)NCc3ccccc3)CC1)NC2=O | 1 | 2 |
| COC(=O)c1ccc(C(=O)N2CCc3cc(OC)c(OC)cc3C2c2ccccc2)cc1 (stereo unspecified) | 18 | 10 |
| CC(C)Oc1ccc(NC(=O)C2CCOC2)c(C(F)(F)F)c1 (stereo unspecified) | 3 | 0 |
| O=C(CCNS(=O)(=O)c1ccc2ccccc2c1)NC1CCCCCC1 | 2 | 7 |
| Cc1ccc(-n2nnnc2SCC(=O)NC2CC2)cc1C | -6 | -6 |
| CCCn1c(N)c(N(CCOC)C(C)=O)c(=O)[nH]c1=O | 1 | 7 |
| N#Cc1c(NC(=O)c2cccc(S(=O)(=O)N3CCOCC3)c2)sc2c1CCCC2 | -11 | -13 |
| CCOC(=O)c1cc(-c2ccccc2C)n(-c2ccc(C(=O)NCCSC)cc2)n1 | 0 | 9 |
| O=C(C1CCCC1)N1CCOC(Cc2ccccc2Cl)C1 (stereo unspecified) | -1 | -4 |
| O=C(NCc1cccc(Oc2ccccc2)c1)C1CC(=O)N(C2CCS(=O)(=O)C2)C1 (stereo unspecified) | 1 | -1 |
| COc1cccc(Nc2cc(C3(C(=O)NCc4ccc5c(c4)OCO5)CC3)ccn2)c1 | -1 | -5 |
| Nc1nc(Cl)c(C=O)c(=O)[nH]1 | -8 | -10 |
| Cn1ccc(NC(=O)N2CCCC3(CCCCCC3)C2)n1 | 7 | 4 |
| COCCNC(=O)C(NC(=O)C1CCCC1)C1CCN(C(=O)c2ccc(Cl)cc2)CC1 (stereo unspecified) | -3 | -1 |
| Cc1nc2c(o1)N(c1cccnc1)C(=N)C(C#N)C2c1ccccc1 (stereo unspecified) | -1 | -2 |
| COc1cc(CNc2cnn(C)c(=O)c2Br)ccc1C | -1&5 | 10&1 |
| CCOc1ccccc1N1CCN(C(=O)c2cc(-c3cccs3)nn2-c2ccccc2Cl)CC1 | 21 | 17 |
| CC(C)(C)Nc1c(CCc2ccccc2)nc2ccc(Cl)cn12 | 13 | 11 |
| CN(C)C(=O)C(F)c1ccccc1 (stereo unspecified) | 9 | 5 |
| Oc1ccc(C=NN=C(c2ccccc2)c2ccccc2)c(O)c1O | -5 | -9 |
| O=C1NC2(CCN(S(=O)(=O)c3ccc(Cl)cc3)CC2)Nc2cccc(Cl)c21 | 0 | 4 |
| NC(c1csc(Nc2nncc3ccccc23)n1)C1CCCCC1 (stereo unspecified) | -4 | -7 |
| O=C(c1cccc(Br)n1)N1CCOC(COCc2c(Cl)cccc2Cl)C1 (stereo unspecified) | -8 | -13 |

(further entries)
compound	NPYLR7 agonist	NPYLR7 agonist max-min
O=C(O)CNC(=O)C1CC(c2cccc(F)c2)=NO1 (stereo unspecified)	0	-1
CCOC(=O)c1c(CN2C(C(N)=O)CC3CCCCC32)oc2ccccc12 (stereo unspecified)	-1	-4
CCC(O)CN(Cc1ccco1)Cc1c(-c2ccccc2)nn(C)c1Oc1cccc(C)c1 (stereo unspecified)	-3	4
N#CCCN(C(=O)c1ccc(C#N)cc1)C1CC1	14	10
Cc1cccc(NC(=O)c2c(NC(=O)C(F)(F)F)sc3c2CCCC3)c1	-7	-6
COc1ccccc1-c1cccc(-c2cccc(NC(=O)c3ccc(C(F)(F)F)nc3C)c2)n1	-5	-11
Cc1ccc(C2C(=C(O)c3ccc(Br)cc3)C(=O)C(=O)N2CCN2CCOCC2)cc1 (stereo unspecified)	5	9
COC(=O)CCC(=O)N(Cc1nc2cc(Cl)ccc2o1)C1CC1	0	-4
CN(C)Cc1nc(C(C)(C)NC(=O)c2cnc(C(C)(C)C)s2)no1	10	8
COc1cccc(NC(=O)CCC2CCN(S(=O)(=O)c3ccccc3)CC2)c1	13	9
O=S(=O)(NCC1CCN(C2Cc3ccccc3C2)C1)N1CCCC1 (stereo unspecified)	3	2
N#Cc1cccc(S(=O)(=O)Oc2ccc(F)c(F)c2)c1	-6	1
Cc1cc(CN2CCC(C)CC2)c(C)c(C2NCCc3[nH]cnc32)c1 (stereo unspecified)	16	9
CCCCS(=O)(=O)Nc1cccc(S(=O)(=O)Nc2ccccc2F)c1	4	2
CN(Cc1ccco1)C(=O)c1ccccc1N1CCC(NC(=O)c2ccccc2Cl)CC1	-2	15
O=C(c1ccccc1)c1ccc(N2CCN(C(=O)c3ccccc3F)CC2)c(F)c1	-11	-16
Clc1cc(CNc2cccc3c2OCCO3)c2c(c1)COCO2	-4	382
COc1ccc(OC)c(NC(=O)NCCNc2ccc(Nc3cc(C)ccn3)nn2)c1	8	1
COc1ccc2c(c1)C=C(CN1CCCn3cncc3C1)CO2	7	6
Cc1cccc(CC(=O)Nc2c(C)nc3cc(C)ccn3c2=O)c1	3	1
CCN1Cc2cc(F)ccc2N(C[C@@H](O)COCc2ccccc2)CCC1=O	24	34
CC(C)CNC(=O)C(NC(=O)c1ccccc1F)C1CCN(C(=O)CCc2ccccc2)CC1 (stereo unspecified)	-2	-1
Cc1cn2c3c(=O)[nH]c(=O)n(C)c3nc2n1-c1ccc(Oc2ccccc2)cc1	-1	1
CC(C)(C)CC(=O)N(Cc1cccc(OS(=O)(=O)c2ccc(F)cc2)c1)C1CC1	13	16
Oc1ccc(C=NNc2ncnc3scc(-c4ccccc4)c23)c(O)c1	3	9
CCn1cc(-c2ccc3ccccc3n2)c(=S)c2ccccc21	-2	-5
C=CCN(Cc1nccn1Cc1ccccc1F)C(=O)CC	6	15
COc1ccc2c(c1)CN(C1CC1)C(=O)CCN2	22	29
CCCSc1nc2c(c(=O)[nH]1)C(c1cccc(F)c1)C(C(=O)OCC)C(C)=N2 (stereo unspecified)	-2	-6
C=CCNC(=S)NNC(=O)C12CC3CC(CC(C3)C1)C2	0	41
Cc1ccc(O)c(C(=O)c2c[nH]c(-c3nnc4n3CCCCC4)c2)c1	4	-2
COC(=O)c1ccc(CC2(C)C(=O)Nc3ccc(OC(F)(F)F)cc32)o1 (stereo unspecified)	4	3
O=C(C1CCN(Cc2ccco2)CC1)N1C[C@@H]2CNC[C@]2(C(=O)O)C1	14	5
COc1ccc(NC(=O)Cn2c(-n3nc(C)cc3C)nc(C)c(C)c2=O)cc1	-1	5
CCCCc1ncc(CN2CCN(Cc3ccc(F)c(F)c3)C(CCO)C2)[nH]1 (stereo unspecified)	1	-2
CCC(=O)Nc1nnc(C)s1	3	1
CC1CCCC(C)N1S(=O)(=O)c1ccc(NC(=O)C2CCC2)cc1 (stereo unspecified)	2	1
O=C(NCC1CCS(=O)(=O)C1)c1csc2nc(-c3cccc(C(F)(F)F)c3)cn12 (stereo unspecified)	12	6
CCOCCCN(CC(=O)N(Cc1cccn1Cc1ccccc1Cl)CC(C)C)C(=O)c1ccc(Cl)c([N+](=O)[O-])c1	-2	13
O=C1c2ccccc2C(Cc2ccnc(F)c2)(Cc2ccnc(F)c2)c2ccccc21	-13	-16
COc1ccc(C=C(C#N)S(=O)(=O)c2ccc(Cl)cc2)c(OC)c1OC	4	9
CCOC1CCCN(C(=O)NCc2ncc(-c3ccccc3)o2)C1 (stereo unspecified)	10	7
CC(=O)N1CCN(c2ccc(OS(=O)(=O)c3cccc(C#N)c3)cc2)CC1	7	3
Cc1nc2ccc3nc(NC(=O)C(C)C)sc3c2s1	-6	-10

This is a subset; count on the stated rates, not on these rows.
